Assay outcomes from PubChem BioAssay.
RanGTP-Imp inh: disruptors of Ran-importin-beta complex formation – biochemical, FRET, CFP-Ran, YFP-importin-beta, homogeneous, primary screen; cell-free CFP-Ran/YFP-importin-beta FRET ratio; inhibition, % (no concentration beside the values); hit rate 1.1% among 300,000;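 active = most replicates above 15%; inconclusive = exactly half above 15%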;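 also: 0% = DMSO wells and 100% = Ran loaded with GDP instead of GTP; wells of about 40 µL received 100 nL stock; the first replicate is given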
Beta apoptosis: beta cell apoptosis inhibition | INS-1E cytokine-induced death, ATP luminescence, 48 h; percent of positive-control rescue, neutral wells zero | hit rate 0.8% among 300,000 | protection from apoptosis, % (concentration not given with the values) | AID 435005;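 active = all replicates at 75% or more, or half of them and the mean; inconclusive = half reach 75% but not the mean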;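 also: 0% = cytokine-treated negative control wells and 100% = positive control rescue; higher means more ATP so stronger rescue from cytokine killing; wells of about 40 µL received 100 nL stock; the first replicate is given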
UCH37 DUB inh: blocks the human deubiquitinase UCH37; hit rate 0.33% among 330,000; purified proteasome/UCH37, Ub-AMC cleavage fluorescence; AID 588478; Q9Y5K5; inhibition, % (test concentration not listed);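 active = mean of two replicates above 20%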;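 also: 0% = compound-free wells with enzyme and 100% = wells lacking proteasome; stock transfer was 100 nL into about 20 µL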
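Test system – human UCH37 enzyme supplied as purified proteasome complex · Incubation – 30 min preincubation with enzyme, 25 min cleavage at room temperature · Detection – AMC fluorescence from Ub-AMC cleavage, excitation 355 nm, emission 460 nm · Benchmarks – no-proteasome wells (full inhibition) and compound-free wells (no inhibition)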
A1 inh: inhibitors of the anti-apoptotic protein A1, read as caspase activation. caspase activation, % (test concentration not listed). MEF A1-2A-BIM cells, Caspase-Glo 3/7 luminescence, 3 h; percent of clofoctol response, vehicle zero. hit rate 0.066% among 330,000. AID 2462;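 active = over half of replicate activation scores above 10%, or exactly half above 10 with the replicate mean above 10; inconclusive = replicate mean below 10 yet half the replicates above 10; inactive = over half of replicates below 10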;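 also: wells of about 30 µL received 50 nL stock; many hits fall short of the cut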
LANA-H2A inh: blocks KSHV LANA binding to histone H2A/H2B | cell-free LANA-H2A/H2B peptide, fluorescence polarization | hit rate 0.6% among 320,000 | inhibition, % (test concentration not listed); in the data active = inhibition mostly above about 10%, no sharp cut-off; inactive = mostly below about 6.7%;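 also: stock transfer was 7.5 nL into about 10 µL; 0% = median of vehicle wells and 100% = median of positive control wells; one replicate is shown; the record names a cut of 25% in any replicate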
Target sequence (Q9QR71 whole entry, looked up): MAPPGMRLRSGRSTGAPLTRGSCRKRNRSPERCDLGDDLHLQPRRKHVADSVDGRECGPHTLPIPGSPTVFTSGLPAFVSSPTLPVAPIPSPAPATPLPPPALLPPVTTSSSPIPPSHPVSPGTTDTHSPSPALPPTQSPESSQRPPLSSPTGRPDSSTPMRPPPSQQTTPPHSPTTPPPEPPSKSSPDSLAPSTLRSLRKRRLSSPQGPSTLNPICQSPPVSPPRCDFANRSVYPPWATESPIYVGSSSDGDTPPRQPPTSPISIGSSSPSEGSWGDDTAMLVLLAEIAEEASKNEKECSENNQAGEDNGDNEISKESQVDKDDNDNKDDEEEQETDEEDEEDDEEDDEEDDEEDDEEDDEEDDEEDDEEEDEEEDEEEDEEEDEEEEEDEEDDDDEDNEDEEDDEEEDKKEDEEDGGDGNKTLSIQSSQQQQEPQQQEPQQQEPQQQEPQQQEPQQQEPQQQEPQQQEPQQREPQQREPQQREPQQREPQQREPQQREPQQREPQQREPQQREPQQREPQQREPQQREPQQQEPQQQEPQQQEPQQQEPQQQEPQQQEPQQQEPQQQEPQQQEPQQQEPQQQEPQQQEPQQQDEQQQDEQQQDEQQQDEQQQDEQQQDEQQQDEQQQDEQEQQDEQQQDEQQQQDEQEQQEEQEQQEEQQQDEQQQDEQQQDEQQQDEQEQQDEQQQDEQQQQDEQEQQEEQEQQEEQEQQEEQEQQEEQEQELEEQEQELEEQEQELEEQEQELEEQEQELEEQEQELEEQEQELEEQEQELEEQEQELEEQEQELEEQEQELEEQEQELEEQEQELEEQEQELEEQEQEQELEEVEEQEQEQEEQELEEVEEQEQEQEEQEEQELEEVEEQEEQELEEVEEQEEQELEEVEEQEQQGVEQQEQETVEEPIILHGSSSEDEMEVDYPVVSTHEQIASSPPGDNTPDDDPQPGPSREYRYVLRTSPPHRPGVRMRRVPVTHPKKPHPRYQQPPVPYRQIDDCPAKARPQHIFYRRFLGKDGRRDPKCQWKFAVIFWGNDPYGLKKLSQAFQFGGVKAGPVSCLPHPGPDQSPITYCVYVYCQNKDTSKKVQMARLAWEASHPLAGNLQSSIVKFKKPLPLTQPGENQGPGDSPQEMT
Beta2AR agonist: human beta-2 adrenergic receptor agonism by FAP. Am2.2-beta2AR cells, FAP receptor internalization, flow cytometry; reference of the scale not given here. response, % (no concentration beside the values). hit rate 0.43% among 340,000;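 active = response above a set limit, near 3 SD of response in nonfluorescent compounds, cut at about 42% in these data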;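 also: stock transfer was 100 nL into about 11 µL; a reference agonist was the positive control; negative values mostly stem from fluorescent compounds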
T cruzi repl: T. cruzi replication inhibition; inhibition, % (no concentration beside the values); hit rate 1.4% among 300,000; T. cruzi beta-gal in NIH3T3, luminescence, 90 h;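 active = mean inhibition across valid replicates above about 55%, limit read from the data; inconclusive = mean below that limit but half or more replicates reach it; inactive = mean below it, under half of replicates reach it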;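 also: signal also drops with host cell toxicity which is not excluded here; 0% = plate median of DMSO wells and 100% = zero luminescence signal; higher percent means less beta-gal luminescence so fewer parasites; stock transfer was 50 nL into about 50 µL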
Calb FLC: C. albicans growth modulation with fluconazole. C. albicans CaCi-2 (fluconazole-resistant clinical isolate) + fluconazole, Alamar Blue growth, 48 h. growth inhibition, % (concentration not given with the values). hit rate 0.57% among 300,000;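 active = most replicates above 75%; inconclusive = exactly half above 75%; inactive = most below 75%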;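 also: all wells also contain fluconazole at 8 µg/ml as a sub-toxic cotreatment; 0% = median of DMSO wells and 100% = median of geldanamycin control wells; wells of about 8 µL received 7.5 nL stock; the first replicate is given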
* marks the source's active call; other numbers are inactive results; ? = inconclusive; · = not tested or not shown.

no.	structure	RanGTP-Imp inh	Beta apoptosis	UCH37 DUB inh	A1 inh	LANA-H2A inh	Beta2AR agonist	T cruzi repl	Calb FLC
1	CCOC(=O)c1cc(C#N)c(N2CCN(c3ccccn3)CC2)nc1-c1ccccc1	-6.1	10	-5.7	0.1	-0.8	4	11	9
2	CCN1C(=O)[C@H]2[C@@H](c3ccc(-c4cccc(Cl)c4)cc3)N3CCCC[C@@]3(C(=O)OC)[C@H]2C1=O	0.0	1	0.3	-0.8	4.3	10	35	-2
3	CCCCCCC(=O)NN1CCN(C)CC1	?	-7	5.0	0.8	-1.6	-5	6	13
4	COc1ccc(C(=O)Nc2n[nH]c(-c3ccncc3)n2)cc1	-3.0	-5	1.6	-0.1	-3.0	-4	-4	-27
5	O=C(c1ccc(N2CCCCCC2)c([N+](=O)[O-])c1)N1CCc2ccccc21	1.8	-2	4.0	-0.1	·	·	17	28
6	COc1ccc(NC(=O)CNC(=O)c2ccco2)cc1S(=O)(=O)Nc1cc(C)ccc1Br	·	3	6.0	0.6	6.2	-4	·	·
7	Cc1ccc(C(=O)N2N=C(c3cccc(NS(C)(=O)=O)c3)CC2c2cccs2)cc1 (stereo not given)	2.9	0	0.0	-0.7	-1.3	3	18	1
8	Cc1c(C(=O)NC2CCCCC2)oc2ccc(F)cc12	1.0	-1	3.1	1.7	-0.8	1	4	6
9	Cc1ccc2nc(SCC(=O)NCc3cccs3)c(C#N)cc2c1	-1.3	1	3.3	-0.1	-1.6	-5	-4	3
10	COc1ccccc1N(CC(=O)NCC1CCCO1)C(=O)CNS(=O)(=O)c1ccc(C)cc1 (stereo not given)	0.1	0	0.2	0.3	3.3	0	10	12
11	CCC(C)(C)n1nnnc1C(c1ccncc1)N1CCN(c2cccc(OC)c2)CC1 (stereo not given)	2.0	-6	1.0	0.2	1.0	3	28	22
12	COc1ccc(C(C)(C)C)cc1NC(=O)COC(=O)c1ncc(Cl)c(Cl)c1Cl	0.4	-7	6.5	0.5	-6.2	-2	-3	-4
13	CCOc1ccc(C2N(c3ccc(F)cc3)C(=O)C3CCCN32)cc1OC (stereo not given)	21*	-6	2.2	-0.8	-0.6	3	4	-8
14	CCNC(=O)N1CCN(S(=O)(=O)c2ccc3c(c2)OCCCO3)CC1	·	-4	-1.8	0.1	0.8	-1	·	·
15	NC(=O)C(=O)N/N=C/c1c2ccccc2cc2ccccc12	-5.7	10	·	1.0	-1.7	0	7	3
16	CCCc1nc2ccccc2c(=O)n1/N=C/c1ccccc1O	4.5	97*	·	-1.2	1.9	-7	2	·
17	O=C(c1ccccc1)c1ccc(C(=O)N2CCCC(C(F)(F)F)C2)cc1 (stereo not given)	·	4	2.7	-0.7	5.1	-1	-2	-4
18	Cc1csc2ncnc(N3CCN(C(=S)Nc4ccc(F)cc4F)CC3)c12	3.3	-6	1.6	-0.2	-1.4	16	-24	20
19	Cn1c(N2CCCCC2)nc2c1c(=O)[nH]c(=O)n2C	1.5	3	1.2	-0.2	2.5	-2	-10	-4
20	COc1ccc(CN2CCN(C(=O)CC(C)C)CC2)cc1	0.7	-10	5.8	0.0	-0.5	-1	-28	-2
21	COC(=O)c1ccc(NS(=O)(=O)c2c(C)[nH]c(C)c2C(=O)N2CCCC2)cc1	-1.7	-6	1.5	-1.4	-0.6	2	0	14
22	CCOc1cccc(-c2c(C(=O)N/N=C/c3cccs3)nnn2-c2nonc2N)c1	5.0	·	·	-0.5	-2.2	-8	11	-10
23	C=CCSc1nnc(CSc2nc3sc4c(c3c(=O)[nH]2)CCCC4)n1-c1ccccc1	7.3	·	-14	·	·	8	6	10
24	Cc1ccc(C(=O)NC(=S)Nc2cccnc2Cl)cc1	1.4	-2	1.7	-0.5	-2.3	-1	-4	5
25	COc1ccc2c(c1)/C(=N/N1C(=O)c3ccccc3C1=O)C(=O)N2	0.5	-8	·	0.1	3.1	·	-12	-1
26	O=C(NCc1cc(C(F)(F)F)cc(C(F)(F)F)c1)C1CC(c2cccc(F)c2)=NO1 (stereo not given)	-1.1	-5	-1.2	-0.5	-5.9	-1	4	20
27	O=C(/C=C/Nc1ccc(F)c(F)c1)c1cccs1	-2.8	0	-6.1	-5.6	6.9	-4	-11	-3
28	Cc1cccc(NC(=O)COc2ccc3oc4c(c3c2)CCCC4)n1	-5.1	-10	4.7	-0.8	-2.4	-12	3	27
29	CCc1ccc(C(=O)CSc2n[nH]c(C)n2)cc1	1.1	·	-1.4	0.0	0.2	-1	-6	-5
30	CN1CCN(C(=O)C(N)Cc2ccccc2)CC1 (stereo not given)	-0.9	3	2.3	0.6	-1.9	4	-14	-17
31	CCOC(=O)CSc1n[nH]c(NC(=O)c2cccc(C)c2)n1	-2.1	-8	3.8	0.6	-0.2	9	-9	-9
32	Cc1ccc(/C=C2\SC(=S)N(CCCC(=O)NNC(=O)c3ccccc3O)C2=O)cc1	3.6	-2	·	-0.3	-0.4	1	18	-3
33	CCOC(=O)c1c(NC(=O)CSc2nnc(-c3ccccc3C)n2C)sc(C(C)=O)c1C	2.6	4	5.1	1.0	-2.1	16	19	7
34	N#Cc1ccccc1CSc1ccc(-c2nc3ccccc3[nH]2)cn1	-1.5	·	-0.1	-5.6	-7.5	-15	13	-17
35	CSC(=S)N/N=C/c1c[nH]c2ccccc12	-5.1	11	·	-0.8	-4.9	7	42	48
36	COc1cc(SC)ccc1C(=O)Nc1nc2ccccc2[nH]1	0.9	106*	·	-0.3	-0.8	-17	-3	-6
37	O=C(c1ccco1)N1CCN(c2cc(=O)n(C3CCCCC3)c(=O)[nH]2)CC1	5.7	-6	-2.4	1.3	-2.0	5	8	-6
38	CN1CCN(C(=O)c2ccc(-c3nn(C)c(=O)c4ccccc34)cc2)CC1	-0.9	-18	5.2	0.2	-3.9	-4	-3	16
39	O=C(c1cccc(S(=O)(=O)N2CCCCC2)c1)N1CCCCC1	3.2	4	4.8	0.0	5.0	4	7	-30
40	O=C(NCC1CC1)Nc1ccccc1	0.0	-3	4.5	-0.1	1.2	1	-8	-2
41	CCN(CC)c1ccc(/C=N/n2c(-c3ccccc3Br)n[nH]c2=S)cc1	3.0	-9	·	0.3	-1.1	-3	-17	12
42	Cc1onc(-c2ccccc2Cl)c1C(=O)NCCn1ccc2ccccc21	5.2	-3	2.8	0.8	-5.8	-2	7	2
43	C=CCOc1cccc(C2C(C(=O)c3ccco3)=C(O)C(=O)N2CCN2CCOCC2)c1 (stereo not given)	-3.5	-11	9.2	-0.3	-0.5	-2	-14	-3
44	CCNC(=O)c1sc2cc(C)ccc2c1Cl	-1.0	-2	-1.1	-1.7	36*	-11	17	1
45	COC(=O)c1cn(NC(=O)/C=C/c2ccc(OC)c(OC)c2)c(=O)c2ccccc12	2.4	6	·	1.5	0.8	11	16	3
46	C#CCOCCOCCOCCNc1nc(N2CCN(C(=O)[C@H](C)n3cc(CCCN=C(N)N)nn3)CC2)nc(N2CCN(C(=O)[C@H](C)n3cc(CCCN=C(N)N)nn3)CC2)n1	0.3	-3	3.4	2.3	-2.5	1	-10	-9
47	COc1ccc(C(C)NC(=O)C2CCCC2)cc1 (stereo not given)	0.5	8	-0.7	-0.5	2.8	-6	-4	3
48	CC1(C)Cc2c(C#N)c(N3CCN(C(=O)c4ccccc4Cl)CC3)nc(-c3ccco3)c2CS1	-1.0	-3	-167	0.1	·	2	20	12
49	O=C(Nc1ccccc1C(=O)NCc1ccccc1)C1=CSCCO1	-0.1	-11	-1.1	-0.4	-0.6	-5	-8	5
50	Cc1cc(Cl)ccc1C(=O)C1CCCN(C(=O)c2cncs2)C1 (stereo not given)	-5.2	-1	5.2	0.2	2.2	-6	26	-4

(cont.)
no.	structure	RanGTP-Imp inh	Beta apoptosis	UCH37 DUB inh	A1 inh	LANA-H2A inh	Beta2AR agonist	T cruzi repl	Calb FLC
51	CCOC(=O)c1ccc(NCn2c(=O)oc3ccccc32)cc1	-3.9	8	0.0	0.4	6.7	-209	-7	-12
52	O=C(Nc1ccc(Cl)cc1Cl)c1ccc(-c2ccccc2)cc1	6.6	-2	1.0	0.2	6.3	-8	-9	7
53	Cc1nn(-c2ccccc2)c(C)c1/C=N/NC(=O)CSc1nc2ccccc2c(=O)n1-c1ccccc1	1.7	18	·	1.1	-4.5	6	15	1
54	O=C(/C=C/c1ccc2c(c1)S(=O)(=O)N(Cc1ccccc1)[C@H]2CC(=O)N1CCOCC1)N1CCOCC1	·	-2	0.5	0.8	4.3	-2	·	·
55	C=CCn1c(SCC(=O)N2CCOCC2)nc2sc(CC)cc2c1=O	·	-3	1.6	0.8	-0.9	1	·	·
56	CCOC(=O)c1sc(NN=C(C(=O)OC)C(=O)OC)c(C(=O)OCC)c1C	-1.3	7	1.1	-1.3	-0.6	12	2	1
57	CCN(CC)C(=O)c1sc2nc(N3CCOCC3)c3c(c2c1N)CCCC3	0.5	-5	-284	0.8	-3.7	0	0	10
58	COc1cccc(C(=O)NCC(c2ccc3c(c2)OCO3)N2CCN(c3ccc(F)cc3)CC2)c1 (stereo not given)	1.0	2	-1.9	-0.1	-2.2	2	18	8
59	Cc1noc(C)c1CSCC(=O)Nc1ccc(S(=O)(=O)C(F)F)cc1	4.8	0	1.0	-0.1	1.5	3	-4	·
60	O=C1ON=C(c2ccccc2)/C1=C/c1ccc(-c2ccccc2[N+](=O)[O-])o1	·	17	6.6	0.4	8.8	96*	·	·
61	O=C(NC(=S)Nc1ccc2nc[nH]c2c1)c1ccccc1	-4.4	-2	2.9	-4.9	-4.8	-13	-4	10
62	CC1(C(=O)NNC(=S)NCC2CCCO2)CC1(Cl)Cl (stereo not given)	2.4	-3	0.6	2.0	-1.7	-3	-21	8
